PrP 5UTR inh: inhibition of PrP 5' UTR reporter expression | cell-based PrP 5' UTR mRNA reporter, plate reader | inhibition, % (test concentration not listed) | actives 0.35% (n = 340,000) | AID 488862;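 active = every replicate at 50% or more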;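 also: 0 = median of the neutral control wells; tested in H4 reporter cells; numbers are from one replicate; inactives centre near -14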
Sa RN4220 lethal: S. aureus RN4220 growth inhibition; OD600, 16 h; inhibition, % (no concentration beside the values); actives 0.33% (n = 330,000);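 active = z-score of -3 or lower and OD600 up to 0.18 on both plates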;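 also: plate controls were untreated cells for no effect and reference antibiotic for full effect; stock transfer was 100 nL into about 80 µL; one replicate is shown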
BJeLR viability: kills HRASV12-expressing BJeLR cells | BJeLR (HRASV12) viability, CellTiter-Glo ATP luminescence, 48 h; reference of the scale not given here | actives 0.17% (n = 300,000) | AID 1554 | inhibition, % (concentration not given with the values);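 active = replicate mean above 50%; inconclusive = above 50% but judged a plate artefact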;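 also: 50 nL library stock added to about 25 µL; numbers are from one replicate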
Bead autofluor: compound fluorescence in toxin protease inhibitor counterscreen | compound autofluorescence counterscreen, microsphere flow cytometry; active compounds read high | fluorescence intensity (no concentration beside the values) | actives 3.1% (n = 360,000) | AID 624483;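 active = at least 3 SD above the mean of all compounds, about 16000 in these data; inconclusive = too few beads counted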;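 also: 100 nL of 1 mM stock went into each well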
ugtP null kill: growth inhibition of S. aureus ugtP deletion strain. S. aureus RN4220 ugtP deletion, OD600 growth, 16 h; some inactives read as strong as hits. actives 0.54% (n = 330,000). growth inhibition, % (test concentration not listed);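 active = z-score under -3 and OD600 up to 0.15 on both plates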;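 also: plate controls were untreated wells for no effect and antibiotic for full effect; wells of about 80 µL received 100 nL stock; the first replicate is given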
Mtb hypoxia inh: inhibitors of hypoxia-regulated fluorescent reporter in Mycobacterium tuberculosis; actives 0.1% (n = 300,000); M. tuberculosis hypoxia-regulated fluorescent reporter, fluorescence; AID 1159583; fluorescence inhibition, % (test concentration not listed);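 active = 35 to 45% if threefold the growth effect, above 45% if 1.5-fold the growth effect; inactive = the rest, general growth blockers included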;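 also: wells of about 50 µL received 100 nL stock; 0% = vehicle wells and 100% = reference inhibitor wells; whole bacteria with a GFP reporter of the hypoxia response; strong numbers were not always called active; many hits fall short of the cut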
Mtb hypoxia inh growth: second read-out of Mtb hypoxia inh, no call of its own (marks repeat the call); growth inhibition, %; measured here: M. tuberculosis growth (absorbance);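 0% = vehicle and 100% = reference antibiotic; read after six days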
Active calls of the source: *; ? = inconclusive; nt = no result given.

SMILES | PrP 5UTR inh | Sa RN4220 lethal | BJeLR viability | Bead autofluor | ugtP null kill | Mtb hypoxia inh | Mtb hypoxia inh growth
Cc1ccc(NC(=O)CCCNC(=O)c2ccc(Cl)cc2)c(O)c1 | -22 | 7.1 | -4 | ? | 1 | -10 | -8
Cc1cccc(CNC(=O)C(C)n2nc(C)c3c(C)n(-c4ccccc4)nc3c2=O)c1 (stereo not given) | 7 | 4.7 | 0 | 4309 | 7 | 14 | 4
CN1C2C=C(N(CCc3ccccc3)C(=O)c3ccc(Cl)cc3)CC1CC2 (stereo not given) | -23 | -1.9 | -6 | 4089 | -1 | 3 | 8
COc1ccc(NC(=O)CCC(=O)Nc2cc(OC)c(NC(=O)c3ccco3)cc2OC)c(OC)c1 | -10 | 7.3 | 11 | 4577 | -4 | 17 | 4
CC1C(=O)CCN(C(C)C)C1C (stereo not given) | -19 | 3.9 | -7 | 3492 | -1 | 12 | 0
COc1cccc(-n2cc3c(=O)n(C)c(=O)n(C)c3c2)c1 | -21 | 6.0 | 3 | 5194 | -10 | nt | nt
Cc1ccc(S(=O)(=O)N(C)c2ccc(C(=O)O)cc2)cc1 | -9 | 8.4 | 2 | 2389 | 14 | nt | nt
CCN(CC(=O)NC1CCS(=O)(=O)C1)c1ccc([N+](=O)[O-])cc1C#N (stereo not given) | -9 | 7.0 | nt | 3013 | 9 | 0 | -2
CNCC(CC1CCCCC1)NCC(CO)NCC1(c2ccccc2)CC1 (stereo not given) | nt | 1.9 | nt | nt | -3 | 22 | 12
CC(=O)Oc1ccc2ccccc2c1C(NC(=O)Cc1ccccc1)c1ccc(Cl)cc1 (stereo not given) | -17 | -9.1 | -12 | 4402 | -8 | 4 | -2

Overlap with the part before: five entries; new compounds follow.
SMILES | PrP 5UTR inh | Sa RN4220 lethal | BJeLR viability | Bead autofluor | ugtP null kill | Mtb hypoxia inh | Mtb hypoxia inh growth
COc1cccc(-n2cc3c(=O)n(C)c(=O)n(C)c3c2)c1 | -21 | 6.0 | 3 | 5194 | -10 | nt | nt
Cc1ccc(S(=O)(=O)N(C)c2ccc(C(=O)O)cc2)cc1 | -9 | 8.4 | 2 | 2389 | 14 | nt | nt
CCN(CC(=O)NC1CCS(=O)(=O)C1)c1ccc([N+](=O)[O-])cc1C#N (stereo not given) | -9 | 7.0 | nt | 3013 | 9 | 0 | -2
CNCC(CC1CCCCC1)NCC(CO)NCC1(c2ccccc2)CC1 (stereo not given) | nt | 1.9 | nt | nt | -3 | 22 | 12
CC(=O)Oc1ccc2ccccc2c1C(NC(=O)Cc1ccccc1)c1ccc(Cl)cc1 (stereo not given) | -17 | -9.1 | -12 | 4402 | -8 | 4 | -2
Cc1c(C=O)c2ccccc2n1Cc1ccccc1 | -12 | -4.8 | 5 | 4360 | 0 | -2 | -10
Cc1cccnc1NC(=O)C1CCN(S(=O)(=O)c2c(C)noc2/C=C/c2ccco2)CC1 | -16 | 3.6 | 7 | 2392 | 1 | 2 | 5
Cc1cc(C(=O)Nc2cccc3ncccc23)no1 | -10 | 3.2 | 3 | 4352 | 7 | 1 | -3
Cc1ccc(Sc2ccc(NC(=O)c3ccc(S(C)(=O)=O)cc3Cl)cc2)cc1 | -8 | -0.3 | 2 | 21237* | -7 | 0 | 5
Cc1ccc(NC(=O)CN(C)C(=O)C(c2ccccc2)c2ccccc2)cc1 | -23 | -3.8 | nt | 3820 | -3 | -10 | -6
CC(=NNC(=O)c1ccncc1)C12CC3CC(CC(C3)C1)C2 | nt | 0.2 | nt | nt | 6 | nt | nt
Cc1ccc([C@H]2C(C(=O)O)=CC[C@@H](c3ccc(C)cc3)N2S(=O)(=O)c2ccc(C)cc2)cc1 | -10 | 15 | nt | 3247 | -6 | 0 | -7
Cc1cccc(OCCCC(=O)NNC(=O)c2cccc(N(C)C)c2)c1 | -21 | 3.8 | nt | 3043 | 9 | 8 | 5
COc1ccc(Cn2nnnc2C(c2ccc(F)cc2)N2CCN(C3CCCC3)CC2)cc1 (stereo not given) | 39 | -7.9 | 0 | 2169 | 1 | nt | nt
COc1ccc(CCC(=O)NNC(=O)Nc2ccccc2Cl)cc1 | 4 | 4.8 | 2 | 4008 | 7 | -3 | -8
C=CCN1N=C(/C=C/c2ccc(C)cc2)CCC1=O | -38 | -1.4 | 6 | 3955 | 24 | -2 | 0
COC(=O)c1ccc(N=Nc2c(C)[nH]n(-c3ccccc3)c2=O)cc1 | -10 | 1.3 | 9 | 4080 | -2 | 8 | 2
CC1CCN(S(=O)(=O)c2ccc(NC(=O)c3ccccc3F)cc2)CC1 | -8 | 1.8 | -7 | 6087 | 14 | -7 | 3
COc1ccc(CN2CCN(C(=O)c3cccc4ccccc34)CC2)cc1Br | -5 | 1.7 | 5 | 4091 | 15 | 14 | 13
O=C(C1=NN[C@@H]2C(=O)N(c3cccc(F)c3)C(=O)[C@H]12)c1ccc2ccccc2n1 | -27 | nt | 0 | 2157 | nt | nt | nt
O=C(CCSc1nc(-c2ccco2)cc(C(F)(F)F)n1)NCCN1CCOCC1 | -18 | 4.5 | 7 | 4464 | 3 | 5 | 5
N#CC1=C(N)NC(SCc2ccccc2)=C(C#N)C12CCCC2 | 3 | 5.7 | 3 | 2437 | -2 | 1 | 0
N#C/C(=C/c1ccc(N2CCCCC2)cc1)c1cccc(F)c1 | -57 | 3.5 | -8 | 12017 | 11 | 11 | 3
COc1ccc(C)cc1NC(=O)C(=O)NN=C(C)CC(=O)Nc1cccnc1 | nt | 5.5 | nt | nt | 0 | 0 | 1
COc1cccc(N2CCN(C(=O)CCSCc3ccccc3F)CC2)c1 | -13 | 4.1 | 9 | 4361 | 9 | 0 | 8
CCC(Oc1ccccc1)C(=O)Nc1ccc(S(=O)(=O)Nc2ncccn2)cc1 (stereo not given) | -2 | 1.6 | 2 | 5249 | 3 | 0 | 7
S=c1[nH]nc(COc2ccccc2)n1/N=C/c1ccncc1 | -7 | nt | 7 | 1950 | nt | nt | nt
COc1ccccc1OCCNS(=O)(=O)c1ccc2oc3ccccc3c2c1 | -31 | 11 | -15 | 2176 | -13 | 12 | 1
COc1cccc(-c2nc(CS(=O)CC(=O)NCc3ccc4c(c3)OCO4)c(C)o2)c1 (stereo not given) | -18 | 16 | -5 | 4317 | 21 | -2 | 5
COc1ccc(C/C(N)=N/OC(=O)COc2ccccc2C)cc1 | -3 | 8.3 | -11 | 2033 | 13 | 6 | 1
COc1ccc(CCNC(=O)CSCC(=O)Nc2cc(S(C)(=O)=O)ccc2Cl)cc1 | -12 | 4.6 | nt | 2959 | 5 | 22 | 8
CCC(=Nc1ccc2c(c1)CCC2)c1c(O)n(C2CCCCC2)c(=O)[nH]c1=O | -2 | -1.6 | 4 | 22000* | -21 | -6 | 5
COC(=O)NN=Cc1ccc(OC(=O)c2ccco2)c(OC)c1 | nt | 3.3 | nt | nt | 2 | -5 | -2
O=C(CN1CCN(c2ccccc2)CC1)NC(=O)NCc1ccccc1 | -20 | -0.7 | nt | 3645 | 5 | 7 | 4
CC1(C)NC(=O)N(CC(O)CNC23CC4CC(CC(C4)C2)C3)C1=O (stereo not given) | 4 | 1.3 | -19 | 4005 | 5 | -2 | 5
COc1ccc(CCNC(=S)N2CCN(S(=O)(=O)c3ccccc3F)CC2)cc1 | -5 | 3.7 | -2 | 5627 | -1 | 3 | 11
CCOc1ccc(NC(=O)c2ccco2)cc1S(=O)(=O)N1CCCC1 | -6 | 0.3 | nt | 4013 | 7 | 8 | 7
C=CCOc1ccc(/C(O)=C2\C(=O)C(=O)N(CCOC)C2c2cccnc2)cc1 (stereo not given) | -4 | 2.4 | -1 | 6605 | -4 | -8 | -2
CCOc1ccc(N(C)S(=O)(=O)c2ccc(C)c(C(=O)N3CCN(Cc4ccc5c(c4)OCO5)CC3)c2)cc1 | -22 | 4.9 | nt | 4163 | -5 | 13 | 7
Cc1ccccc1NC(=S)NN1CCN(C)CC1 | -12 | 3.4 | -4 | 3231 | -8 | 9 | -2
CCC1(C)Cc2ccccc2-c2nc(NCCO)n(-c3ccc(C)cc3)c(=O)c21 (stereo not given) | -25 | 4.6 | 7 | 4643 | 8 | nt | nt
Cc1ccc(C(=O)NCCCNC(=O)c2ccc(Cl)cc2)cn1 | 6 | -6.6 | -6 | 3270 | -6 | -5 | -9
COc1ccc(N2C(=O)C3C4C=CC(C4)C3C2=O)c([N+](=O)[O-])c1 (stereo not given) | -33 | 5.1 | 0 | 3455 | 10 | 13 | 12
CN(C(=O)CSc1nncc2ccccc12)C1CCCCC1 | 6 | 1.7 | nt | 3782 | -2 | -2 | 8
COCc1c(C(=O)Nc2nc(C)cs2)oc2ccccc12 | -39 | 14 | 1 | 3219 | 5 | -2 | 4
CCN(CC)S(=O)(=O)c1csc(C(=O)Nc2ccccn2)c1 | -23 | 2.2 | -3 | 6270 | 10 | 8 | -1
O=C(Nc1cccc(Cl)c1Cl)c1ccccc1NC(=O)C1CC=CCC1C(=O)O (stereo not given) | -20 | 3.2 | nt | 5732 | -12 | -2 | 17
COc1ccc(-n2c(=O)c3c4c(sc3n3c(=S)[nH]nc23)CCCC4)cc1 | -5 | 19 | -10 | 1913 | 4 | 0 | 2
CC(C(=O)O)N1C(=O)c2ccccc2C1=O (stereo not given) | -30 | 1.8 | -23 | 3945 | -1 | 9 | 12
COc1ccc(NC(=O)C2CCN(S(C)(=O)=O)CC2)c(OC)c1 | -7 | 6.3 | -16 | 3494 | 0 | 15 | 3
CN(C(=O)c1ccc(NC(=O)Cc2cccc(NC(=O)C3CCN(C(=O)C4CCCC4)CC3)c2)cc1)C1CCCC1 | -10 | 2.8 | nt | 3354 | 3 | 3 | 7
CC1CCC2C(=O)N(c3ccccc3OC(=O)c3ccccc3F)C(=O)C2C1 (stereo not given) | 0 | 3.7 | -1 | 4541 | -5 | -9 | -10
COc1cccc(CNC(=O)COC(=O)CCS(=O)(=O)c2ccc(C)cc2)c1 | -10 | 0.9 | nt | 6075 | 0 | 11 | 6
C#CCOc1ccc2c(c1)c(C(C)=O)c(C)n2Cc1ccccc1 | -2 | 3.6 | -6 | 3273 | 18 | -6 | 5
CCOC(=O)c1c(/N=C/c2cc(C)ccc2O)sc2c1CCC2 | -12 | nt | -2 | 1978 | nt | nt | nt
(listing goes on)
SMILES | PrP 5UTR inh | Sa RN4220 lethal | BJeLR viability | Bead autofluor | ugtP null kill | Mtb hypoxia inh | Mtb hypoxia inh growth
O=C(COc1ccccc1F)N1CCN(CCN2C(=O)c3cccc4cccc(c34)C2=O)CC1 | -17 | -10 | -1 | 4171 | 0 | -4 | 13
CNC(=S)Nc1ccc(C(N)=O)cc1 | -2 | 2.3 | 7 | 5806 | 1 | 8 | 4
Cc1cc(Nc2cccc(F)c2)n2c(n1)nc1ccccc12 | -24 | 1.5 | -11 | 4124 | -10 | 4 | 4
NNC(=O)c1ccc(CSc2nc3ccccc3[nH]2)cc1 | -11 | 9.1 | 4 | 3340 | 14 | 3 | 5
C/C(=N\NC(=O)c1c(Br)c(C)nn1C)c1ccc(NC(=O)C(C)Oc2ccc(Cl)cc2C)cc1 (stereo not given) | -9 | nt | 4 | 2255 | nt | nt | nt
O=C(COc1ncnc2cc([N+](=O)[O-])ccc12)NC(=O)NC1CCCCC1 | -9 | -1.4 | 2 | 2803 | 11 | 8 | 11
Cc1cc(N)n(-c2nc(-c3cccnc3)nc3ccccc23)n1 | -9 | -0.5 | 6 | 2818 | 1 | nt | nt
CN(C(=O)CC1C(=O)NCCN1Cc1cccc(F)c1F)C1CCOCC1 (stereo not given) | -9 | 0.5 | -2 | 5542 | 9 | 12 | -7
CCCc1nc2ccccc2n1CC(O)COc1ccc(NC(C)=O)cc1 (stereo not given) | -8 | 4.1 | 1 | 2093 | 8 | 6 | 8
NS(=O)(=O)c1ccc(NC(=O)CNC(=O)c2ccc3c(c2)OCO3)cc1 | -16 | 0.9 | nt | 4208 | 2 | 19 | 6
O=C(N/N=C/c1cn(-c2cccs2)nc1-c1ccccc1)c1ccc(O)cc1 | -10 | nt | 7 | 2544 | nt | nt | nt
CCCc1cc(=O)[nH]c(SCC(=O)Nc2cc(S(=O)(=O)N3CCCCC3)ccc2C)n1 | nt | 8.5 | nt | ? | 5 | 8 | 10
CCCc1ncc(C(O)c2ccccc2OC)n1C (stereo not given) | -33 | 5.5 | -4 | 4282 | 2 | 0 | 0
COCCCn1c(C23CC4CC(CC(C4)C2)C3)n[nH]c1=S | -14 | -1.6 | 2 | 3262 | -8 | -3 | -7
